Screening data (PubChem BioAssay)
HTT promoter inh: Primary qHTS for Identification of Small Molecule Inhibitors of Huntingtin Promoter Activity | HEK293 HTT promoter firefly luciferase reporter (activity 0% = vehicle and -100% = no light), 24 h | Potency, µM (highest dose often 57.5 µM), for inactives: at the top dose activity change, negative = inhibition, actives largely listed as inhibitors | 48,000 tested, 0.93% active; active means well fitted inhibition curve with a large enough effect; inconclusive means small, poorly fitted or top-dose-only effect; inactive means no such curve, though single readings can be large or run the other way; further: nearly all actives have a fitted effect of over 50% in size
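HEK293 Fluc reporter, 2,500 cells/well, 24 h pre-culture; cpds up to 57.5 uM final, 24 h 37 degrees C; Dual-Glo, 10 min RT; normalized vehicle = 0%, zero RLU = -100%.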
PMP22 txn: Cell-based coincidence reporter assay to measure PMP22 gene transcription in S16 Pmp22-F2sN cells - Primary screen | S16 Pmp22-F2sN Schwann cells (luciferase reporters placed in the Pmp22 gene), FLuc/NLuc coincidence luminescence, 24 h | Potency, µM (series often up to 57.5 µM), for the others: at the top dose activity change, negative = inhibition, most hits filed as inhibitors | 43,000 tested, 2% active; active = clear falling dose curves in both reporters; inconclusive = both reporters move, but less clearly or upward; inactive = either reporter flat; the % is the NLuc reporter signal; further: on the % scale 0 is the no-effect control and ±100 the full control effect; some results filed as inactive show a strong effect at the top dose
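S16(c9) Schwann cells with FLuc/NLuc coincidence reporter in the Pmp22 3' UTR; compounds pin-transferred, 24 h at 37C. Dual-luciferase read: FLuc first, then NLuc after Stop&Glo, each 10 min at room temperature.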
* hit, by the source's call; u = inconclusive; x = not tested or not shown; [ ] = another dose, or the depositor's remark. Potency means the concentration at half of the fitted maximal effect.

SMILES	HTT promoter inh	PMP22 txn
COC(=O)c1sccc1S(=O)(=O)N(CC(=O)Nc1cc(C)cc(C)c1)c1ccc(Cl)cc1	-0.9%	u
Cc1nnc(SCC(=O)NCc2ccc(N(C)C)cc2)c2nn(-c3ccccc3)c(C)c12	-25.9%	u
CC(C)c1ccc(Nc2cc(C(=O)NCc3cccs3)c3ccccc3n2)cc1	-4.1%	21.2%
COc1cc(NC(=O)Cn2c(=O)n(CC3CCCO3)c(=O)c3ccccc32)cc(OC)c1 (centres undefined)	-5.0%	2.3%
Cc1cccc(NS(=O)(=O)c2ccc3c(c2)CC(C)N3C(=O)C2CCC2)c1C (centres undefined)	u	u
CCN(Cc1ccccc1)Cc1c(O)ccc2c(=O)c(-c3ccccc3OC)c(C(F)(F)F)oc12	-23.4%	u
COc1ccc(-c2cc(-c3ccccc3)nc3c2COc2ccc(Cl)cc2-3)cc1	-8.7%	26.3%
Cc1ccc(COc2cccc3cc(-c4noc(-c5ccc(C)cc5)n4)c(=O)oc23)cc1	-1.0%	-36.6%
CN(Cc1ccccc1)C(=O)c1cc2c(s1)-c1ccc(Cl)cc1SC2	5.0%	-1.2%
COc1cccc(NC(=O)C2CCCN(S(=O)(=O)c3c(C)nn(C)c3C)C2)c1 (centres undefined)	-23.8%	-1.0%
CCC(=O)N1c2ccccc2CC1C(=O)NCCN1CCN(c2cc(Cl)ccc2C)CC1 (centres undefined)	-26.4%	u
O=C(Nc1ccc(Br)cc1F)c1ncoc1-c1ccco1	11.5%	u
Cc1cccc(NC(=O)CSc2nc(=O)n(Cc3ccccn3)c3c2CCC3)c1C	-17.9%	6.7%
CCOC(=O)N1CCc2c(sc3c2C(=O)NC(c2cc(OC)c(OC)c(OC)c2)N3)C1 (centres undefined)	u	u
COc1ccc(C(=O)N2CCC(C(=O)Nc3ccccc3Cl)CC2)cc1	-18.2%	-2.7%
Cc1ccc(C)c(NS(=O)(=O)c2ccc3c(c2)n(C)c(=O)n3C)c1	-31.8%	1.2%
O=C(CCCn1c(=O)c2cccn2c2cccnc21)Nc1ccccc1C(F)(F)F	-0.8%	-14.1%
COc1ccc(-c2nc3ccccc3o2)cc1NC(=O)c1cc([N+](=O)[O-])ccc1N1CCOCC1	22.5%	-6.1%
COc1ccccc1CNC(=O)CCCCn1c(=O)c2ccccc2n(Cc2ccccc2F)c1=O	-2.8%	u
COc1cc(-c2nc(C(N)=O)c3c(n2)n(-c2cccc(C)c2)c(=O)n3C)cc(OC)c1OC	-8.5%	-12.1%
CCN1C(=O)c2ccccc2S(=O)c2ccc(C(=O)NCc3ccc(OC)cc3)cc21 (centres undefined)	-1.0%	-7.3%
CCOC(=O)c1c(-c2ccc(Br)cc2)csc1NC(=O)c1ccc(F)cc1	-6.2%	-11.6%
COc1ccc(Nc2nc(-c3ccc(C)cc3)nc3ccccc23)c(OC)c1	u	u
Cc1cccc(Cn2c(CNS(=O)(=O)c3ccc4c(c3)CCCC4)nc3cccnc32)c1	-19.8%	-20.0%
COc1ccccc1CNC(=O)c1ccc(CS(=O)(=O)c2c(Cl)cccc2Cl)o1	-7.6%	u
CCOc1ccccc1NC(=O)c1cc2c(Cl)nc3ccccc3c2s1	1.1%	-35.6%
CCN(CC)CCNC(=O)C1CCN(S(=O)(=O)c2c(C)noc2/C=C/c2ccccc2F)CC1	-19.7%	u
COc1ccc(N2CCN(C(=O)c3cc4ccc5cccnc5c4[nH]3)CC2)cc1	-3.4%	u
Cc1ccccc1NC(=O)CC1NCCNC1=O (centres undefined)	-0.1%	5.4%
O=C(CSc1nc2ccccc2n1Cc1ccc(F)c(Cl)c1)N1CCN(c2ccc(F)cc2)CC1	-15.4%	-23.0%
Cc1ccc(N2C(=O)CS(=O)(=O)C23C(=O)N(Cc2cccc(F)c2)c2ccccc23)cc1Cl (centres undefined)	-28.0%	-5.2%
CC1CCN(C(=O)c2ccc(NC(=O)c3nsc4ccccc34)cc2)CC1	-13.6%	-4.4%
Brc1ccc(CNCCCSc2nnnn2-c2ccccc2)cc1	1.3%	-20.5%
COc1cccc(CNC(=O)CSc2cc(C)[nH]c(=O)n2)c1	-1.6%	-3.4%
CCOC(=O)c1cccc(NC(=O)c2cnc(N3CCCCC3)c3ccccc23)c1	u	u
COc1ccc(-n2c(=O)c3ccc(C(=O)NCc4ccc(C)cc4)cc3n(Cc3ccc(F)cc3Cl)c2=O)cc1	-8.5%	-9.8%
O=C(Cn1nc(-c2ccccc2)ccc1=O)NCc1ccc(F)cc1Cl	-8.7%	4.2%
COCCNC(=O)CSc1nc(-c2ccc(C)cc2)nc2c1c(=O)n(C)c(=O)n2C	-6.2%	-13.4%
Cc1ccc(S(=O)(=O)Nc2cc(Cl)c3oc4c(c3c2)CCCC4)cc1	-21.6%	u
CCc1ccc(NC(=O)C(CC)n2c(=O)c(-c3ccccc3NC(C)=O)nc3ccccc32)cc1 (centres undefined)	14.1µM*	u
O=C(NCc1ccccc1)c1cccc(Nc2nc3ccccc3n3nnnc23)c1	19.1%	12.7µM*
Cc1cc(C)n2nc(CNS(=O)(=O)c3ccc(C)c(C)c3)nc2n1	5.1%	16.6%
COC(=O)c1cc2sc(C)cc2n1CC(=O)Nc1cccc(SC)c1	-19.2%	-26.6%
CCOc1ccc(-n2c(=O)c3c4c(sc3n(CC(=O)NCCCOC)c2=O)CCCCC4)cc1	-12.9%	4.9%
O=C1OC(CN2CCOCC2)CN1/N=C/c1ccc([N+](=O)[O-])o1 (centres undefined)	6.8%	x
Cc1nc2nncn2c(NCc2ccc(F)cc2)c1C	u	u
O=C(Nc1ccc(Br)cc1F)C(NS(=O)(=O)c1cccc2nsnc12)c1ccccc1 (centres undefined)	-27.0%	u
COc1ccc(CC(=O)Nc2sc3c(c2C(=O)Nc2cccc(Cl)c2)CCCCC3)cc1	u	u
COc1ccc(N(C(=O)Cn2nnc3ccccc32)C(C(=O)NCc2ccccc2)c2ccc(F)cc2)cc1 (centres undefined)	-12.1%	-29.4%
O=S(=O)(NCc1nc2cccnc2n1Cc1ccccc1Cl)c1ccc(F)c(Cl)c1	u	u

(list continues)
SMILES	HTT promoter inh	PMP22 txn
CCCCc1ccc(Nc2cc(C)nc(-n3nc(C)cc3C)n2)cc1	u	15µM*
COc1ccc(/C=C(\C#N)c2nc3ccccc3c(=O)[nH]2)cc1OC	-21.0%	-17.8%
Cc1ccc(Cl)cc1N1CCN(C(=O)Cn2ncc3c([nH]c4ccccc43)c2=O)CC1	7.6%	-10.5%
COc1ccc(Cl)cc1NS(=O)(=O)c1cc(Br)cc2c1N(C(=O)C1CC1)CC2	u	-43.8%
O=C(c1ccco1)N(Cc1cccnc1)c1nc2c(F)cc(F)cc2s1	-7.8%	-26.3%
Cc1ccc(NC(=O)c2c(C)nn(-c3ccccc3)c2-n2cccc2)c(Cl)c1	-13.7%	-9.4%
COc1ccc(CCNCc2c(C(=O)O)c(C)n(Cc3c(F)cccc3Cl)c2C)cc1OC	-11.5%	-13.9%
O=C(O)c1ccc2nc(-c3cc4cc(F)ccc4oc3=O)[nH]c2c1	45.2%[activator]	9.1%
NC(=O)CSc1ncc2c(n1)-c1ccccc1N(Cc1ccccc1)S2(=O)=O	-7.2%	u
CCC(C)NC(=O)c1cc2cc(S(=O)(=O)N3CCCCC3)ccc2n1C (centres undefined)	u	u

Of the compounds above, nine have a thiophene ring, fused or not:
SMILES	HTT promoter inh	PMP22 txn
COC(=O)c1sccc1S(=O)(=O)N(CC(=O)Nc1cc(C)cc(C)c1)c1ccc(Cl)cc1	-0.9%	u
CC(C)c1ccc(Nc2cc(C(=O)NCc3cccs3)c3ccccc3n2)cc1	-4.1%	21.2%
CN(Cc1ccccc1)C(=O)c1cc2c(s1)-c1ccc(Cl)cc1SC2	5.0%	-1.2%
CCOC(=O)N1CCc2c(sc3c2C(=O)NC(c2cc(OC)c(OC)c(OC)c2)N3)C1 (centres undefined)	u	u
CCOC(=O)c1c(-c2ccc(Br)cc2)csc1NC(=O)c1ccc(F)cc1	-6.2%	-11.6%
CCOc1ccccc1NC(=O)c1cc2c(Cl)nc3ccccc3c2s1	1.1%	-35.6%
COC(=O)c1cc2sc(C)cc2n1CC(=O)Nc1cccc(SC)c1	-19.2%	-26.6%
CCOc1ccc(-n2c(=O)c3c4c(sc3n(CC(=O)NCCCOC)c2=O)CCCCC4)cc1	-12.9%	4.9%
COc1ccc(CC(=O)Nc2sc3c(c2C(=O)Nc2cccc(Cl)c2)CCCCC3)cc1	u	u

(cont.)
SMILES	HTT promoter inh	PMP22 txn
COc1ccccc1N1CCN(C(=O)c2cn(CC(C)C)c(=O)c3c2c2ccccc2n3C)CC1	u	u
Cc1cc(C)c(NC(=O)CCn2c(=O)c3cccn3c3cccnc32)c(C)c1	0.3%	2.1%
CC(C)c1ccc(NC(=O)CSc2ncnc3c2sc2ccccc23)cc1	3.1%	-11.6%
COc1ccccc1CNC(=O)c1ccc(CSc2nc3ccncc3n2Cc2ccccc2C)cc1	-33.6%	-23.5%
Cc1cc(O)c(C(=O)c2cnc3c(c2)COc2ccccc2-3)cc1Cl	-18.4%	-14.3%
CCOCCc1nnc(NC(=O)C(=O)c2cc(C)n(-c3cccc(Cl)c3)c2C)s1	-14.3%	33.4%
CCOC(=O)C1CCN(C(=O)c2ccc3c(c2)sc2nc(-c4ccccc4)cn23)CC1	-18.3%	u
COc1cc(OC)c(NC(=O)c2cn(C3CCCC3)c(=O)c3c2c2ccccc2n3C)cc1Cl	-7.3%	u
CCCSc1nnc2c(n1)OC(c1ccc(OCC(=O)O)cc1)Nc1ccccc1-2 (centres undefined)	62.7%[activator]	-11.8%
Cc1ccc(C)n1-c1c(C(=O)NCC(C)c2ccccc2)sc2ncccc12 (centres undefined)	u	u
COc1ccccc1C(=O)Nc1ccc(OCc2cc(=O)n3ccc(C)cc3n2)cc1	0.6%	-9.2%
O=C(NC1CCCCC1)c1ccc(Cn2c(SCc3cccc(F)c3)nc3cccnc32)cc1	u	u
CCOc1ccc(CNC(=O)Cn2nc(C)c3sc4ccccc4c3c2=O)cc1	3.7%	-6.4%
COc1ccc(NC(=O)C2CCN(C(=O)c3sc4nc[nH]c(=O)c4c3C)CC2)c(OC)c1	-1.8%	u
CCOC(=O)c1scc(-c2ccccc2)c1S(=O)(=O)Nc1ccccc1OC	u	u
CC(=O)c1ccc(NC(=O)Cn2c(=O)nc(-c3ccccc3)c3cc(Cl)ccc32)cc1	-19.1%	16.4%
O=C(COCc1cc(-c2cccs2)on1)NCc1ccccc1Cl	-27.5%	-7.9%
CC1(C)[C@@H]2CC[C@@]1(C)C(=O)C2	6.6%	x
CCN(CC)S(=O)(=O)c1ccc2c(c1)nc(CN(C)C(=O)c1cccc(Cl)c1)n2C	-25.8%	u
Cc1ccc(N2CC(NC(=O)C3CCCCC3)CC2=O)cc1 (centres undefined)	-20.3%	12.2%
CC1=C(C(=O)Nc2ccc(C)c(C)c2)C2(CCCCCC2)OC1=O	-13.0%	-30.2%
O=C(Cn1c(=O)n(Cc2ccc(F)cc2)c(=O)c2sc3ccccc3c21)NCc1ccccc1	-14.0%	u
Cc1ccc(C(=O)Nc2onc3c2CCCC3)cc1	56.3%[activator]	-5.1%
COc1ccc(OC)c(CCNC(=O)c2ccc3[nH]c(C)c(C)c3c2)c1	-13.5%	u
COc1cccc(N2CCN(c3c4c(nc5nncn35)CCC4)CC2)c1	u	u
CN(Cc1ccco1)S(=O)(=O)c1nnc(NC(=O)c2cccc(Cl)c2)s1	-15.5%	16.4%
CCCCOc1ccc(CNC(=O)CN2CCSc3ccccc32)cc1	-35.6%	-13.4%
Cc1ccc2nc(-c3ccc(NC(=O)COc4ccc(Br)cc4Br)cc3)sc2c1	-27.2%	-1.6%
CCOC(=O)c1ccc(NC(=O)c2nc(S(=O)(=O)Cc3ccccc3)ncc2Cl)cc1	u	1.89µM*
CC(C)(C)C(=O)Nc1cccc(C(=O)OCc2cc(=O)n3nc(C4CC4)sc3n2)c1	-11.7%	-54.4%
COC(=O)c1c(Oc2ccc(OC)cc2)nnc(-c2ccccc2)c1-c1ccccc1	u	26.0%
COc1ccc(-c2nc3ccccc3o2)cc1NC(=O)c1ccc(-c2ccc(Br)cc2)o1	4.2%	-12.3%
COc1cccc(C2CC(=O)Nc3cc4c(cc32)OCCO4)c1OC (centres undefined)	u	0.2%
Cc1ccccc1OCCCCn1c(CCNC(=O)C(C)(C)C)nc2ccccc21	u	u
Cc1ccc(C)c(-c2ccc(=O)n(Cc3c(F)cccc3Cl)n2)c1	u	-10.2%
O=C(Cn1c(=O)n(-c2ccc(Cl)cc2)c(=O)c2oc3ccccc3c21)Nc1ccccc1	-24.5%	-10.2%
CCOC(=O)c1c(NC(=O)c2cc(=O)c3ccc(C)cc3o2)sc(C)c1C	0.0%	-10.4%
CCOc1ccc2nc3cc(N)ccc3c(N)c2c1	-19.0%	x
CCc1ccc(NC(=O)c2cc(S(=O)(=O)N3CCCC(C)C3)cn2C)cc1 (centres undefined)	-26.9%	-12.6%
Cc1ccc2nc(Nc3ccc(Br)cc3)nc(-c3ccccc3)c2c1	-7.5%	-26.1%
CC(=O)N1c2ccc(S(=O)(=O)N3CCCCCC3)cc2CC1C(=O)NCc1cccc(F)c1 (centres undefined)	-16.4%	-22.9%
